Bioassay records: PubChem, several laboratories
Mtb betalactam = beta-lactam sensitization of Mtb H37Rv, H37Rv. M. tuberculosis H37Rv growth with meropenem, percent inhibition; hits of this screen are not shown here. inhibition, % at 25 µM. 330,000 tested, 0.27% active;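 active = about 74% or more and at least 40 points above the plate without the antibiotic, then above 30% in a dose series; inconclusive = first-round hits that could not be retested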;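 also: growth measured after seven days incubation then overnight dye step; 0% = bacteria only wells and 100% = bacteria with antibiotic; twin plates without the antibiotic show which effects depend on it; some results filed as inactive read as strong as hits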
RecA intein inh = Mtb RecA intein splicing inhibitors, primary screen, biochemical, fluorescence, HTS; Protein RecA (Mycobacterium tuberculosis (strain ATCC 25618 / H37Rv)), P9WHJ3; cell-free RecA intein splicing; inhibition, %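 (about 9 µM by stock and volumes)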; 290,000 tested, 0.75% active; AID 2221, 2009; in the data active = inhibition above about 30%; inconclusive = no clear call, values can overlap the other calls;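 also: 0% = vehicle wells and 100% = reference inhibitor control wells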
Target sequence (P9WHJ3 whole entry, looked up): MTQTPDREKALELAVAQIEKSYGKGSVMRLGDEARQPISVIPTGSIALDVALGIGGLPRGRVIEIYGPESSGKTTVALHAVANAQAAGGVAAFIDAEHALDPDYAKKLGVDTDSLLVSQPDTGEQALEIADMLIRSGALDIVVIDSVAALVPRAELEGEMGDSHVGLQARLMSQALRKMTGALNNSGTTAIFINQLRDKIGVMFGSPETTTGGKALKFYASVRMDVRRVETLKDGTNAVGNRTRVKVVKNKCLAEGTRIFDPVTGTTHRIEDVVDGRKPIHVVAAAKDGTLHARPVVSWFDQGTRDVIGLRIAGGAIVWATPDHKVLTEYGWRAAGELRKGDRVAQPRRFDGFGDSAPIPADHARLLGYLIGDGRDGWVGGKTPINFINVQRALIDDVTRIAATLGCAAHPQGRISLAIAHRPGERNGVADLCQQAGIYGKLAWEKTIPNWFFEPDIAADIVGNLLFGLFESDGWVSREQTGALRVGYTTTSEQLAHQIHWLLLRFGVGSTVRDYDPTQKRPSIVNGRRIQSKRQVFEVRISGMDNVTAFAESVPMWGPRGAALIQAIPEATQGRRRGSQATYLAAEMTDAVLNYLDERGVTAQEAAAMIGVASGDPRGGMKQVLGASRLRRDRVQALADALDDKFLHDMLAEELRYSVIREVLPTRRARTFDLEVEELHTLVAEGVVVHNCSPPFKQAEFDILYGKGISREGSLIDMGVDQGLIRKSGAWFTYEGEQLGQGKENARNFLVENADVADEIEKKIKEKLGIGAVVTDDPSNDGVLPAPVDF
Mtb growth = M. tuberculosis H37Rv growth inhibitors, H37Rv strain (AID 1626); M. tuberculosis H37Rv growth inhibition; higher % means a stronger effect; 220,000 tested, 0.95% active; inhibition, % at 10 µM, or IC50 in µM where a hit was titrated;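 active = confirmed in a dose series; inconclusive = inhibition above 80% but not taken into the dose series; inactive = below 80% or under 30% at every dose of the series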;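 also: bacteria incubated seven days before Alamar blue readout; 0% = bacteria only wells and 100% = bacteria with antibiotic wells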
Arbovirus anti = antivirals against arbovirus infection, primary screen, cell-based, full library, 10K replicate subset; arbovirus infection cell-based antiviral screen; inhibition, % at 10 µM; 200,000 tested, 0.37% active; AID 1251, 2008;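 active = inhibition from about 30%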;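 also: bluetongue infection of BSR cells; cell survival read as ATP light after 72 h; 0% = infected wells without compound and 100% = uninfected wells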
YopH inh = YopH tyrosine phosphatase inhibitors, primary screen, biochemical, fluorescence Ex485/Em525; 140,000 tested, 0.16% active; inhibition, %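 (about 10 µM by stock and volumes)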;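 active = inhibition of 50% or more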;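 also: controls were vehicle for no effect and minimum signal wells for full effect; inactives centre near -20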
The depositor's hits bear a star; u = inconclusive; x = no result given. A portion of the library; count on the stated rates, not on these rows.

SMILES	Mtb betalactam	RecA intein inh	Mtb growth	Arbovirus anti	YopH inh
CCC(=O)NC(=S)Nc1cccc(NC(=O)CC)c1	-4	0.6	4%	-8	-27
O=C(CC1C(=O)NCCN1C(=O)c1ccc([N+](=O)[O-])cc1)Nc1cccc(Cl)c1 (centres undefined)	-2	0.8	x	x	x
CC1(OC(=O)C2CCCC2)C(=O)C=C2C=C(c3ccsc3)N(CCc3c[nH]c4ccccc34)C=C2C1=O (centres undefined)	-3	0.8	-8%	x	x
CO/N=C\CC(=O)Nc1ccc(F)cc1	3	1.0	-1%	-1	-32
O=C(CC1OC(=O)c2ccccc21)Nc1cc(S(=O)(=O)N2CCOCC2)ccc1OCC(F)(F)F (centres undefined)	-7	1.0	x	x	x
O=C(CN1CCOCC1)Nc1ccc(OCc2ccccc2)cc1	37	7.2	0%	-2	-24
COc1ccc(NC(=O)c2cnn(-c3ccccc3)c2C)cc1	4	-2.5	x	x	x
COc1ccccc1OCCNC(=O)c1ccc2c(c1)CCC2	-1	-0.4	x	x	x
[O-][n+]1onc2c3ccnnc3ccc21	99	-1.1	59%	1	38
O=P(O)(O)CP(=O)(O)O	-1	-4.7	-6%	17	10
CCCc1cc(=O)oc2cc(C)cc(OCC(=O)Nc3ccc(CN4CCOCC4)cc3)c12	2	-0.1	x	x	x
CCOC(=O)N1CCN(C(=O)c2cc(-c3ccncc3)nc3ccccc23)CC1	-9	0.6	x	x	x
COC(=O)c1ccc(CSc2nnc3c(Cl)cc(Cl)cn23)o1	3	1.0	-5%	4	-35
O=C(COc1ccc([N+](=O)[O-])cc1)N/N=C/c1ccccn1	13	1.4	-6%	-13	-24
S=c1[nH]c2ccccc2n2c(=S)[nH]nc12	5	-0.6	x	x	x
CCC(CC)c1nnc(NC(=O)CN2C(=O)C3C4C=CC(C4)C3C2=O)s1 (centres undefined)	-1	0.3	2%	4	0
CCOC(=O)c1c(-c2ccc(OC)cc2)csc1NC(=O)CCN1C(=O)c2ccccc2C1=O	8	3.6	4%	-2	-7
COCc1c(C)cc(C)c(/C=N/O)c1C	-1	1.2	-6%	6	-16
Cc1cccc(C)c1NC(=O)N1CCC(C(=O)c2ccc(F)cc2)CC1	-2	-1.6	x	x	x
Cc1ccc(S(=O)(=O)N2CCN(C(=O)CSc3nncs3)CC2)cc1	14	0.4	-4%	x	x

One compound at a time (already shown). Order of values: Mtb betalactam	RecA intein inh	Mtb growth	Arbovirus anti	YopH inh
`CCCc1cc(=O)oc2cc(C)cc(OCC(=O)Nc3ccc(CN4CCOCC4)cc3)c12` in the list: 2	-0.1	x	x	x
`S=c1[nH]c2ccccc2n2c(=S)[nH]nc12` in the list: 5	-0.6	x	x	x

Further compounds follow.
SMILES	Mtb betalactam	RecA intein inh	Mtb growth	Arbovirus anti	YopH inh
Cc1c(S(=O)(=O)N2CCCC2)c(=O)n(C)c(=O)n1C	-5	-2.0	x	x	x
COCCCn1c(-c2ccco2)nc2ccccc2c1=O	-5	-1.0	-6%	2	-11
CC(C)Cc1nnc(NC(=O)CCC(=O)N2CCN(C3CCCC3)CC2)s1	-2	-0.4	x	x	x
CC(/C=C/C=C/c1ccccc1)=N\NC(=O)c1cccnc1	96	1.3	u	23	x
CC(=O)Oc1c(/C=C(\C#N)C(N)=O)[nH]c2ccccc12	x	74*	-5%	-16	-22
NNC(=O)CNC(=O)c1cccc(Br)c1	-1	x	-6%	-3	-10
O=c1c2ccccc2nc(N/N=C/c2c(O)ccc3ccccc23)n1O	-2	-15	x	-36	-33
CCOc1ccc(OCC(=O)N2CCC3(CC2)CC(=O)c2ccccc2O3)cc1	-11	0.2	x	x	x
O=C(c1cc2ccccc2oc1=O)N1CCN(c2ncccn2)CC1	u	-2.8	-10%	0	-20
CCOC(=O)N1CCN(S(=O)(=O)c2ccc(C)c(C)c2)CC1	-7	1.0	7%	3	-29
Cc1ccsc1CNCCc1ccccc1F	-9	-1.7	x	x	x
CCOc1cc(N2CCOCC2)c(OCC)cc1NC(=O)CN1C(=O)NC(C)(C2CC2)C1=O (centres undefined)	8	-3.5	4%	4	x
CN(C)c1ccc(CC2C(=O)Nc3ccccc32)cc1 (centres undefined)	-6	1.5	-20%	x	x
CCOC(=O)c1nn(-c2ccc(Cl)cc2)c(C)cc1=O	-2	28	x	x	x
Cc1cccc(NC(=O)/C(C#N)=C/c2ccc(F)cc2)n1	-1	-1.6	x	x	x
Cc1ccsc1/C=N/NC(=O)C1CC(=O)N(c2ccc(F)cc2)C1 (centres undefined)	-10	1.4	-6%	x	x
COc1ccc(N2CCN(C(=O)CNC(=O)c3cccc(Br)c3)CC2)cc1	-2	-3.0	x	x	x
CCOC(=O)[C@@H]1[C@H]2COc3ccc(Br)cc3[C@@H]2N2C(=O)N(c3ccccc3)C(=O)[C@]12C	-5	15	x	x	x
CCN1CCN(C(CC(C)C)c2nnnn2CS(=O)(=O)c2ccc(C)cc2)CC1 (centres undefined)	0	1.0	2%	-9	x
Cc1cccc(C(=O)OCC(=O)NCC(C)C)c1O	-4	-1.4	4%	4	x
CC(=O)Nc1ccc(S(=O)(=O)Nc2nc3ccccc3nc2-n2ccc(=NC(=O)c3ccc(F)cc3)cc2)cc1	2	-2.7	6%	6	x
S=C(Nc1ccccc1Cl)N1CCOCC1	-1	-2.9	-10%	4	-24
Cc1ccc(NC(=O)CSc2nnc3n2CCCCC3)cc1	-3	1.4	10%	-4	-8
CC(=O)c1ccc(NC(=O)c2noc3c2CCC3)cc1	-9	0.9	4%	3	x
CCN(CC)C(=O)Oc1nnc(SC(C)C)n1-c1ccc(Cl)cc1	-3	1.3	0%	x	x
O=C(CNc1c(Br)cc(Br)cc1Br)NN=C1CCCCC1	1	3.1	-9%	-12	-23
CCO[C@@H]1OC(C(=O)N2CCN(Cc3ccccc3)CC2)=C[C@H](c2ccccc2)[C@H]1CCCO	0	-0.6	-8%	-1	x
CCOC(=O)CC1Sc2ccccc2NC1=O (centres undefined)	3	-2.1	-5%	-4	-1
CCCNS(=O)(=O)c1ccc(CCC(=O)NCCc2ccc(OC)c(OC)c2)cc1	1	6.5	0%	2	x
CCCC(C)C(=O)Nc1ncc(S(=O)(=O)c2ccc([N+](=O)[O-])cc2)s1 (centres undefined)	-10	-3.3	x	x	x
NC(=O)C1(NC(=O)[C@@H]2CC3(CC(c4cccc(NC(=O)[C@@H]5CCC(=O)N5)c4)=NO3)CN2C(=O)c2ccccc2)CC1 (some centres undefined)	-5	-2.6	-4%	3	-33
CCOC(=O)Nc1cccc(NC(=O)c2ccccc2F)c1	7	13	4%	0	x
COc1ccc(C2C(C(=O)O)CC(=O)N2C2CCCCC2)cc1 (centres undefined)	u	-2.6	0%	3	-6
O=C(NCC1CCCO1)c1ccc2c(=O)n(-c3ccc(F)cc3)c(=S)[nH]c2c1 (centres undefined)	-2	-0.6	7%	-3	x
O=C(CN1C(=O)CSc2ncccc21)Nc1cccc(Cl)c1	-7	-4.7	x	x	x
CCC1(CC)NC(=O)N(CC(=O)OCC(=O)NC(=O)c2ccccc2OC)C1=O	-1	-2.4	x	x	x
Cc1nnc(SCc2ccccc2Cl)n(N)c1=O	100	2.9	3%	-1	x
CC(C)N1CC(C(=O)Nc2cc(Cl)cc(Cl)c2)CC1=O (centres undefined)	2	0.7	x	x	x
O=C(c1ccc(NS(=O)(=O)c2ccc(F)cc2)cc1)N1CCN(c2ccccc2O)CC1	9	-1.3	x	x	x
COc1ccccc1C(=O)Nc1ccc2nc3n(c(=O)c2c1)CCCC3	-4	0.8	x	x	x
C#CCOc1ccccc1C(N)=O	-6	-3.8	-12%	x	x
C/C(=N\NC(=O)COc1cc(C)cc(C)c1)c1ccc(N2CCOCC2)cc1	-1	x	-6%	-5	-16
NC(N)=N/N=C/c1ccccc1	9	-2.3	12%	-4	1
Cc1ccc(C(=O)OCC(=O)Nc2ccccc2C(F)(F)F)cc1S(=O)(=O)N1CCOCC1	-5	1.2	2%	2	0
Cn1c(=O)[nH]c(=O)c2c1nc(N1CCCCCC1)n2CCCSc1nnnn1-c1ccccc1	4	0.4	10%	8	-7
CCN(CC)CCN(C)Cc1nc(C(c2ccccc2)c2ccccc2)no1	-9	-1.8	x	x	x
Cc1c(Br)cccc1NC(=O)c1sccc1-n1cccc1	x	1.8	x	3	10
COC(=O)c1cc(CN2CCN(c3ccccc3)CC2)ccc1O	6	-0.3	x	x	x
Cc1ccc(-c2csc(NC(=O)c3cccc(C)c3)c2C(=O)O)cc1	-2	4.0	x	x	x
COCCNC(=O)CN(C(=O)CCC(=O)Nc1nccs1)c1ccccc1OC	2	2.3	1%	3	-50
Next part
SMILES	Mtb betalactam	RecA intein inh	Mtb growth	Arbovirus anti	YopH inh
CC(NC(=O)c1cccs1)C(=O)NC1=NCCS1 (centres undefined)	1	-0.6	-3%	0	-19
CC(Oc1ccc2c3c(c(=O)oc2c1)CCCC3)C(=O)NC1CC(C)(C)NC(C)(C)C1 (centres undefined)	-10	0.2	x	x	x
CCOc1cccc2cc(-c3csc(NC(=O)CCC(=O)N4CCC(C)CC4)n3)c(=O)oc12	-3	-0.2	-1%	-8	13
CC(C)(C)c1ccc(C(=O)N2CCN(CCNC(=O)C(=O)Nc3ccc(F)cc3)CC2)cc1	97	-1.6	x	x	x
Cc1noc(C)c1CSc1nnc2ccccn12	-5	0.0	-5%	-3	-6
c1ccc(CCNc2nnnn2-c2ccccc2)cc1	-4	2.6	-10%	1	-37
C=CCn1c(-c2csc(-c3ccc(OC)c(OC)c3)n2)n[nH]c1=S	6	-14	5%	-2	x
CC(=O)Nc1ccc(NC(=O)c2ccc(-c3ccc([N+](=O)[O-])cc3)o2)cc1	52	-0.2	x	x	x
O=C(CSCc1nc2ccccc2[nH]1)N1CCN(c2ccc(F)cc2)CC1	3	-0.5	-15%	10	-33
CN(C)C(=S)Nn1c(-c2ccccc2)nc2ccccc2c1=O	4	-1.7	-4%	-1	-29

Part of the list above in order of length of the SMILES, high to low:
SMILES	Mtb betalactam	RecA intein inh	Mtb growth	Arbovirus anti	YopH inh
CC(C)(C)c1ccc(C(=O)N2CCN(CCNC(=O)C(=O)Nc3ccc(F)cc3)CC2)cc1	97	-1.6	x	x	x
CC(Oc1ccc2c3c(c(=O)oc2c1)CCCC3)C(=O)NC1CC(C)(C)NC(C)(C)C1 (centres undefined)	-10	0.2	x	x	x
CN(C)C(=S)Nn1c(-c2ccccc2)nc2ccccc2c1=O	4	-1.7	-4%	-1	-29
CC(NC(=O)c1cccs1)C(=O)NC1=NCCS1 (centres undefined)	1	-0.6	-3%	0	-19
c1ccc(CCNc2nnnn2-c2ccccc2)cc1	-4	2.6	-10%	1	-37
Cc1noc(C)c1CSc1nnc2ccccn12	-5	0.0	-5%	-3	-6

(listing goes on)
SMILES	Mtb betalactam	RecA intein inh	Mtb growth	Arbovirus anti	YopH inh
COc1ccc(C)cc1NC(=O)CCS(=O)(=O)c1ccc2c(c1)CCN2C(C)=O	-1	2.5	-1%	4	x
O=C(CSc1n[nH]c(-c2ccccc2)n1)Nc1ccc(N2CCOCC2)cc1	90	-0.8	-3%	7	x
COc1cc(C(=O)NCC(=O)N/N=C/c2cccnc2)cc(OC)c1OC	-1	-0.6	x	x	x
C=CCOc1ccc(C(c2c(C(=O)O)[nH]c3ccccc23)c2c(C(=O)O)[nH]c3ccccc23)cc1	-5	12	x	x	x
Cc1ccc(CNC(=O)c2ccccc2NS(C)(=O)=O)cc1	6	2.0	3%	3	-21
COc1ccc(-c2csc(Nc3ccccc3)n2)cc1	61	9.6	63%	-8	x
CC1CCCN(c2nc(-c3cccnc3)nc3scc(-c4ccccc4)c23)C1 (centres undefined)	3	-2.2	10%	-35	-29
O=C(Cn1cncn1)N/N=C/c1ccc(Cl)cc1	-1	0.3	-6%	3	-7
COc1ccc(N2C(N)=NC(N)=NC2(C)C)cc1	-12	x	x	6	-109
Cc1[nH]nc2c1C(CC(C)C)C(C#N)=C(N)O2 (centres undefined)	-2	72*	5%	x	x
CCOc1cc(N2CCOCC2)c(OCC)cc1NC(=O)COc1ncnc2ccccc12	6	-6.3	-6%	0	-16
CC(=O)Nc1sc2c(c1C(c1cccs1)N1CCOCC1)CCCC2 (centres undefined)	-14	-0.8	-2%	3	-31
COc1cc(/C=N\NC(=O)CC(=O)NCCc2ccccc2)ccc1O	-2	0.0	-6%	-1	x
CC(C)(C)NC(=O)CSc1nnc(-c2ccccn2)n1Cc1ccccc1	-5	0.2	x	x	x
CCOC(=O)C1C(=O)N(C(=O)c2ccc(OC)cc2)CC1c1ccccc1 (centres undefined)	1	-0.2	0%	26	-17
Cc1ccc(NC(=O)CCNC(=O)c2ccc(Cl)cc2)nc1	-5	-0.8	x	x	x
CN(C)S(=O)(=O)c1cccc(C(=O)Nc2ccccc2Cl)c1	-6	1.9	8%	6	-10
